VACV mCherry inh = inhibitors of vaccinia virus infection (mCherry reporter signal); Vaccinia virus mCherry reporter infection, fluorescence; about a quarter of the inactives have no number; Potency, µM (titrated, usually from 36.5 µM), for the others: at the top dose activity change, negative = inhibition, most hits filed as inhibitors; hit rate 0.63% among 310,000; AID 720579; active = well fitted inhibition curve with a large enough effect; inconclusive = small, poorly fitted or top-dose-only effect; inactive = no such curve, though single readings can be large or run the other way; tested in A549 cells; also: nearly all actives have a fitted effect of over 35% in size; inactives centre near -10
VACV Venus inh = inhibitors of vaccinia virus (Venus reporter). Potency, µM (doses to about 36.5 µM), for the others: at the top dose activity change, negative = inhibition, actives largely listed as inhibitors. hit rate 0.46% among 330,000. Vaccinia virus Venus reporter expression, fluorescence; active means well fitted inhibition curve with a large enough effect; inconclusive means small, poorly fitted or top-dose-only effect; inactive means no such curve, though single readings can be large or run the other way; tested in A549 cells; also: nearly all actives have a fitted effect of over 30% in size; inactives centre near -10
* hit, by the source's call; i = inactive; ? = inconclusive; / = no result given; & = joins results of further samples. % is scaled to controls: 0 for no effect and ±100 for the full control effect; potency is read from the fitted curve at half-maximal effect.

SMILES	VACV mCherry inh	VACV Venus inh
COc1ccc(-c2cn3c(n2)sc2cc(C(=O)NCCCc4ccccc4)ccc23)cc1	-18%	-18%
C=C[C@@H]1c2cc(C)ccc2N(S(=O)(=O)c2ccc(C)cc2)[C@H](c2ccccc2C(F)(F)F)C1(C#N)C#N	-17%	-19%&-7%
CCOC(=O)c1[nH]c2ccc(OC)cc2c1NC(=O)CCN1CCC(C)CC1	/	-2%
Cc1ccc(S(=O)(=O)N2CCC(C(=O)OCC(=O)N3CCCC3=O)CC2)cc1C	-14%	-6%
C[C@@H]1CN([C@@H](C)CO)C(=O)CCCn2nncc2CO[C@H]1CN(C)C(=O)C1CC1	i	1%
COc1cccc(NC(=O)CSc2nccn2-c2cccc(OC)c2)c1	/	-26%
CCCN1C(C(=O)c2ccccc2)=C(OC(=O)C(C)(C)C)c2ccccc2S1(=O)=O	?	?
CC(=O)N1CCN(S(=O)(=O)c2cccc(C(=O)N(Cc3ccccc3)c3ccc(C)cc3)c2)CC1	-20%	-17%
O=C(COC(=O)c1ccccn1)Nc1c(Cl)cccc1Cl	/	1%
COc1ccccc1CC1S/C(=N/N=C/c2ccco2)NC1=O (stereo not given)	i	-18%
CC(C)n1nc(C(=O)Oc2ccc(Cl)cc2)c2ccccc2c1=O	-18%	-17%
O=C(Cc1ccc(-c2ccccc2)cc1)NCCS(=O)(=O)N1CCN(c2ccccc2F)CC1	i	-19%
COc1nnc(-c2ccc(C)cc2)c2ccccc12	-16%	-5%
CC1CCCN(C(=O)COC(=O)c2ccc(=O)n(Cc3ccccc3)n2)C1 (stereo not given)	-16%	-10%
O=C(CCNS(=O)(=O)c1ccc(Br)s1)N1CCCCC1	/	-3%
CCN(CC)C(=O)CCc1nnc(Cc2cccc(C(F)(F)F)c2)o1	-16%	-15%
CN1/C(=C\C(=O)c2cncc(Br)c2)C(C)(C)c2ccccc21	-14%	28%
CCOC(=O)C1CCCN(C(=O)Cc2ccc(Cl)cc2)C1 (stereo not given)	/	1%
Cc1ccc(/C(O)=C2/C(=O)C(=O)N(Cc3cccnc3)C2c2ccccn2)cc1 (stereo not given)	-5%	2%
c1ccc(-c2noc(-c3cccnc3)n2)cc1	i	-5%
O=C(c1ncc[nH]1)c1cccs1	-5%	4%
CC1CCN(C(=O)c2nc[nH]c2C(=O)N2CCc3ccccc3C2)CC1	-12%	-4%
O=C(CSCC(=O)N1CCCCC1)Nc1nc(-c2ccccc2)c(-c2ccccc2)s1	?	?
S=C(NCCc1ccccn1)Nc1ccc(Cl)cc1Cl	i	-14%
CCCC(C(=O)NC1CCCC1)N(C(=O)Cn1nnc(-c2ccc(C)o2)n1)c1cccc(O)c1 (stereo not given)	i	-11%
Cc1ccc(N2CCN(S(=O)(=O)N3CCOCC3)CC2)cc1C	-6%	-6%
Nc1nc(SCCOc2ccccc2)n[nH]1	-20%	-18%
CSCCC(NC(=O)c1ccccc1)C(=O)NNC(=O)c1csc(N2CCOCC2)n1 (stereo not given)	-2%	-13%
CC(C)C(=O)NC(c1cccs1)c1cc([N+](=O)[O-])c2cccnc2c1O (stereo not given)	11µM*	?
Cc1nnc(SCC(=O)N2CCN(S(=O)(=O)c3ccc(Cl)cc3)CC2)n(N)c1=O	i	-13%
CC(=O)NCCc1ccc(S(=O)(=O)N2CCCC2)cc1	i	-8%
COc1ccc(-n2nc(C(=O)NCC(=O)N3CCCCC3)c3ccccc3c2=O)c(OC)c1	-10%	-5%
COc1cc(COCC(O)CN2CCN(CCN3C(=O)c4cccc5cccc(c45)C3=O)CC2)cc(OC)c1OC (stereo not given)	-23%	?
O=C1C2C3CCCC3=C3CCCC3C2C(=O)N1c1ccc(Cl)cc1 (stereo not given)	/	-9%
COC(=O)C1=NN(C(C)=O)C2(CC(=O)N(c3cc(C)cc(C)c3)C2=O)C1 (stereo not given)	-9%	-3%
CCN(C(=O)CCc1nnc2ccc(NCc3ccco3)nn12)c1ccccc1	-1%	-1%
COc1ccccc1N1CCN(C2CCCCC2NS(=O)(=O)c2ccccc2)CC1 (stereo not given)	i	-6%
CN(C)c1ccc2c(c1[N+](=O)[O-])Cc1ccccc1-2	i	-7%
COc1cccc(C2NC(=O)NC(C)=C2C(=O)OCC2CCCO2)c1 (stereo not given)	1%	0%
O=C(c1ccc2ncsc2c1)N1CCN(c2cccc(C(F)(F)F)c2)CC1	?	-20%

For convenience, part of the list above.
SMILES	VACV mCherry inh	VACV Venus inh
CC(=O)NCCc1ccc(S(=O)(=O)N2CCCC2)cc1	i	-8%
COc1ccc(-n2nc(C(=O)NCC(=O)N3CCCCC3)c3ccccc3c2=O)c(OC)c1	-10%	-5%

More compounds
SMILES	VACV mCherry inh	VACV Venus inh
CN(C(=O)c1cccc(NC(=O)C2CCCN(C(=O)OC(C)(C)C)C2)c1)C1CCCC1 (stereo not given)	i	-12%
Cc1ccc(/C=N/Nc2nc(N3CCOCC3)nc(N3CCOCC3)n2)o1	-1%	-10%
CCOc1ccc(-n2c(SCC(=O)Nc3ccc(F)cc3)nc3c([nH]c4ccccc43)c2=O)cc1	-6%	-1%
Cc1cn([C@H]2C[C@H](O)[C@@H](CNCc3ccc(C#CCCO)cc3)O2)c(=O)[nH]c1=O	i	-5%
CC1(C)Cc2c(sc(NC(=O)c3ccc4ncsc4c3)c2C(N)=O)C(C)(C)N1	?	?
O=C(CSc1nnc(CNC(=O)c2c(F)cccc2F)o1)Nc1ccc2c(c1)OCCO2	i	-13%
COCC(C)n1c(C)cc(C(=O)Cn2c(=O)oc3ccccc32)c1C (stereo not given)	-11%	-10%
O=C(NCc1ccco1)c1ccc2c(c1)N(Cc1ccc(Cl)cc1)C(=O)c1ccccc1S2	-7%	-13%
CC1CCCCN1Cc1ccc(Cl)nc1 (stereo not given)	-2%	-16%
COc1ccc(NC(=O)CSc2nc(=O)n(CCN3CCOCC3)c3c2CCC3)c(OC)c1	-4%	-13%
COc1ccc(S(=O)(=O)NC2CCCCCC2)cc1C(N)=O	-24%	-2%
Cc1c(C(=O)N2CCCCC2)sc(N)c1C#N	/	3%
COc1ccc(CNCc2ccco2)cc1OCc1ccccc1	-9%	-12%
CC1Cc2ccccc2N1C(=O)COC(=O)c1ccc(Cl)nc1 (stereo not given)	i	-9%
Cn1c(=O)n(C)c2cc(NS(=O)(=O)c3ccccc3)ccc21	-14%	-7%
N#CCC(=O)NN=C1CCCCCCCCCCC1	-11%	-8%
O=C(NN=C1c2ccccc2-c2ccccc21)c1ccccc1Br	-1%	-10%
O=C(CSc1nnc(NC(=O)c2ccco2)s1)Nc1ccccc1Br	-5%	-4%
Cc1ccc2nc(-c3ccccc3)cc(C(=O)NCCCn3ccnc3)c2c1	-7%	-11%
CCc1nnc(N/N=C/c2c(Cl)cccc2Cl)n1N	-17%	-9%
Cc1c(/C(O)=C2\C(=O)C(=O)N(CCN(C)C)C2c2cccnc2)cnn1-c1ccccc1 (stereo not given)	/	-4%
CC1(NC(=O)Nc2cccc3ccccc23)CCS(=O)(=O)C1 (stereo not given)	-5%	-20%
CCC(C)(C)n1nnnc1C(c1ccccn1)N1CCN(c2cccc(OC)c2)CC1 (stereo not given)	/	-15%
CCCn1c(=N)n(CC(=O)c2ccc(Cl)c(Cl)c2)c2ccccc21	-14%	-7%
Cc1cc(C(=O)Nc2ccccc2-c2nc(CNC(=O)c3ccccc3Cl)c(C)o2)c(C)o1	i	-9%
FC(F)(F)c1ccc(N=Cc2sc(N3CCOCC3)nc2-c2ccccc2)cc1	-10%	0%
O=C(N1CCN(Cc2ccccc2)CC1)C(Cl)(Cl)Cl	?	-28%
c1csc(-c2nc(N3CCOCC3)c3ccccc3n2)c1	18%	-20%
O=C(CCSc1ccc(Cl)cc1)N1CCN(c2ncccn2)CC1	-17%	-17%
C=CCNC(=O)c1ccc(N(CC=C)S(C)(=O)=O)cc1	-13%	-9%
O=C(CCCOc1ccc(Cl)cc1Cl)Nc1nnc(C2CC2)s1	-4%	7%
C=C(C)COc1ccc(-c2nc(N)ncc2Oc2ccccc2OCC)c(O)c1	/	?
CCCNc1c(NC(=O)c2ccc3c(c2)OCO3)c(=O)oc2ccccc12	-11%	1%
CS(=O)(=O)N1CCCC(C(=O)NC2CCCCCCC2)C1 (stereo not given)	-1%	-16%
Cc1ccc(NC(=O)c2ccc(NCCCN3CCOCC3)c([N+](=O)[O-])c2)cc1Cl	?	?
CC1=NN(Cc2ccccc2)C(=O)C1	i	-6%
CCC1(C2CCN(Cc3c(C)[nH]c4ccccc34)CC2)NC(=O)N(Cc2ccc3c(c2)OCO3)C1=O (stereo not given)	-4%	-4%
COC(=O)c1ccc(NC(=O)CC2C(=O)N(c3ccc(Cl)cc3)C(=O)N2Cc2cccs2)cc1 (stereo not given)	-6%	-12%
COC(=O)C(CC(C)C)NC(=O)/C=C/c1ccc(Cl)cc1 (stereo not given)	i	10%
Cc1ccc(S(=O)(=O)N(Cc2cc3ccccc3[nH]c2=O)c2cccc(C)c2)cc1	-10%	-7%
CCOC(=O)CSc1cc(=O)n(C)c2cc(Cl)ccc12	-15%	-8%
CN(C)c1ccc(-c2cccc(C3CC=CC4C3C(=O)N(Cc3ccccc3)C4c3ccc(C(F)(F)F)cc3)c2)cc1 (stereo not given)	-5%	-13%
CCS(=O)(=O)NCCc1csc2nc(-c3ccc(C)cc3)nn12	-8%	-3%
Cc1ccc(S(=O)(=O)N2C[C@H]3[C@H]4C(=O)N(Cc5ccccc5)C(=O)[C@H]4CC(=O)[C@H]3[C@@H]2c2ccccc2F)cc1	i	-4%
O=C(O)c1c[nH]c2ccc(F)cc2c1=O	-12%	-12%
Cc1ccc(-n2nc3c(c2NC(=O)c2ccc4c(c2)OCO4)CS(=O)C3)c(C)c1 (stereo not given)	i	-9%
O=C1NC[C@H](CC2CCCCC2)N(CCc2cccc3ccccc23)C1=O	-11%	-6%
Cc1cc(C)cc(N(CC(=O)N/N=C/c2ccncc2)S(=O)(=O)c2ccccc2)c1	-6%	-26%
COc1cc(OC)c(NC(=O)CCCn2nc(C)c3sc4ccccc4c3c2=O)cc1Cl	-13%	-17%
COc1cccc(Oc2cn[nH]c2-c2ccc(OC)cc2O)c1	?	?
Next part:
SMILES	VACV mCherry inh	VACV Venus inh
COc1cccc(CCn2c(N)cc(=O)[nH]c2=S)c1OC	-8%	-6%
Cc1cc(C)c(C)c(S(=O)(=O)N2CCNCC2)c1C	-26%	-21%
CCc1ccccc1NCC(=O)Nc1ccccc1C(=O)OC	i	0%
CC1(C)CC(NC(=O)c2ccc(Cl)cc2Cl)CC(C)(C)N1	i	-5%
CCOC(=O)CN1C(=O)C(Sc2n[nH]c(-c3cccc(C)c3)n2)CCc2ccccc21 (stereo not given)	?	-22%
O=C1C2CCCN2C(=S)N1c1ccc(Cl)cc1 (stereo not given)	i	-4%
CC1CC(C)OP(=O)(OCCC#N)O1 (stereo not given)	-1%	-12%
CC(C)Oc1ccc(CNC(=O)c2ccc3c(c2)N(C)C(=O)C2CCCCN32)cc1 (stereo not given)	-21%	-4%
CCCn1c(=O)c(Cc2ccccc2)c(O)c2ccccc21	/	-25%
COc1cccc(CNC(=O)CCCN2C(=O)CSc3c2c(C)nn3-c2ccccc2)c1OC	-8%	-8%
COc1cc(C2c3cc(O)c(OC)cc3CC(C(=O)O)C2CO)ccc1O (stereo not given)	-6%	6%
O=C(O)[C@@H]1CCCN1c1ncnc2sc3c(c12)CCC3	/	-9%
COc1ccc(-n2cccc2/C=C/[N+](=O)[O-])cc1	i	-6%
COc1ccc(/C=C(/NC(=O)c2ccco2)C(=O)Nc2ccc(C(C)=O)cc2)cc1	-3%	-2%
Cc1ccc(-c2csc(C(O)c3ccc(F)c(F)c3)n2)cc1C (stereo not given)	4%	-29%
Cc1nn2c(=O)cc(COc3ccc(/C=C(\C#N)C(=O)Nc4ccccc4C)cc3)nc2s1	-10%	2%
CCN1CCN(C(=O)Cn2cnc3sc(C)c(S(=O)(=O)N4CCN(c5ncccn5)CC4)c3c2=O)CC1	i	-4%
CCCSc1ncc(Cl)c(C(=O)Nc2sc(C(C)=O)c(C)c2C(=O)OCC)n1	-7%	-3%

Part of the list above, as comma-separated lines:
mol,VACV mCherry inh,VACV Venus inh
CCc1ccccc1NCC(=O)Nc1ccccc1C(=O)OC,i,0%
CC1(C)CC(NC(=O)c2ccc(Cl)cc2Cl)CC(C)(C)N1,i,-5%
CCOC(=O)CN1C(=O)C(Sc2n[nH]c(-c3cccc(C)c3)n2)CCc2ccccc21 (stereo not given),?,-22%
O=C1C2CCCN2C(=S)N1c1ccc(Cl)cc1 (stereo not given),i,-4%
CC1CC(C)OP(=O)(OCCC#N)O1 (stereo not given),-1%,-12%
CC(C)Oc1ccc(CNC(=O)c2ccc3c(c2)N(C)C(=O)C2CCCCN32)cc1 (stereo not given),-21%,-4%
CCCn1c(=O)c(Cc2ccccc2)c(O)c2ccccc21,/,-25%
COc1cccc(CNC(=O)CCCN2C(=O)CSc3c2c(C)nn3-c2ccccc2)c1OC,-8%,-8%
COc1cc(C2c3cc(O)c(OC)cc3CC(C(=O)O)C2CO)ccc1O (stereo not given),-6%,6%
O=C(O)[C@@H]1CCCN1c1ncnc2sc3c(c12)CCC3,/,-9%
COc1ccc(-n2cccc2/C=C/[N+](=O)[O-])cc1,i,-6%
COc1ccc(/C=C(/NC(=O)c2ccco2)C(=O)Nc2ccc(C(C)=O)cc2)cc1,-3%,-2%
Cc1ccc(-c2csc(C(O)c3ccc(F)c(F)c3)n2)cc1C (stereo not given),4%,-29%
Cc1nn2c(=O)cc(COc3ccc(/C=C(\C#N)C(=O)Nc4ccccc4C)cc3)nc2s1,-10%,2%
CCN1CCN(C(=O)Cn2cnc3sc(C)c(S(=O)(=O)N4CCN(c5ncccn5)CC4)c3c2=O)CC1,i,-4%
CCCSc1ncc(Cl)c(C(=O)Nc2sc(C(C)=O)c(C)c2C(=O)OCC)n1,-7%,-3%

Assay outcomes (PubChem)

Rows were taken by chance; overall some 0.86% were active at least once.
